Vaccinia pol inh: blocks vaccinia virus processive DNA synthesis. in vitro processive DNA synthesis, absorbance read-out; active compounds read low; some inactives read as strong as hits. normalized absorbance, % (concentration not given with the values). 0.94% of 46,000 active. AID 493162;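 active means replicate mean up to 90% and picked by the depositor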;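 further: 100% = median of the test wells of a plate; 100 nL library stock went into each well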
Starred values were filed as active, the others as inactive.

SMILES	Vaccinia pol inh
CCOC(=O)N1CCC(N2CC34C=CC(O3)C(C(=O)Nc3ccc(OCC)cc3)C4C2=O)CC1 (stereo not drawn)	91
COC(=O)Cn1c(=O)c2cccn2c2ccccc21	90
CC(C)(Oc1ccc(Cl)cc1)C(=O)O	102
Cc1ccc(S(=O)(=O)CC(C)N2CCOCC2)c(S(=O)(=O)CC(C)N2CCOCC2)c1 (stereo not drawn)	100
COc1ccc(OC2C(=O)N(c3cccc(C(F)(F)F)c3)C2c2ccc(OC)c(OC)c2)cc1 (stereo not drawn)	98
CCOC(=O)c1cnc2c(ccc3ccccc32)c1NCCOC(=O)C(C)(C)C	100
COC(=O)C1=C(C)N(C)C(=O)/C1=C\c1cc(C)n(-c2ccc(C)cc2)c1C	100
c1cnc(N2CCN(Cc3c[nH]c4ccccc34)CC2)nc1	101
COc1ccc(NC(=O)C2CC(=O)N(CCc3ccc(Cl)cc3)C2)cc1 (stereo not drawn)	90
CN(C)CC(C)(C)NS(=O)(=O)c1ccccc1	102
Cc1cc2c(cc3c(SCC(=O)NCc4ccco4)nncn32)o1	94
CC1CCCC(C)N1C(=O)c1cc2c(s1)-c1ccccc1OC2 (stereo not drawn)	96
Nc1nc(S(=O)(=O)c2ccccc2)c(Cl)s1	100
CC(OC(=O)c1ccncc1)C(=O)Nc1cc(C(F)(F)F)ccc1Cl (stereo not drawn)	104
CCNC(=S)Nc1ccc(F)cc1	100
C/C(=N\n1cnnc1)c1ccc(-n2cnnn2)cc1	100
NNC(=O)Cn1nnc(N2CCCC2)n1	99
CC1CN(C(=O)c2ccc(C(=O)c3ccccc3)cc2)CC(C)O1 (stereo not drawn)	110
COc1ccc(C2=C(CC(=O)O)C(=O)CC2)cc1	100
O=C(OCc1ccc(Cl)cc1)c1cc(=O)c2ccccc2o1	96
O=C(Nc1ccc(C2=NCCO2)cc1)c1ccc(C(F)(F)F)cc1	105
C=CCN1C(=O)CCNc2ccccc21	100
CN1C(=O)/C(=C\c2ccc(Cl)cc2)SC1=S	114
CCCS(=O)(=O)c1ccc(NC(=O)Nc2ccc(Cl)cc2Cl)cc1	108
Cc1ccc(CNC(=O)c2oc3ccccc3c2-n2cccc2)cc1	108
CC(C)c1ccc(S(=O)(=O)Nc2cc3c4c(oc3c3ccccc23)CCCC4)cc1	101
Cc1ccc(C(=O)CC(SC2CCCCC2)C(=O)O)cc1 (stereo not drawn)	99
COC(=O)c1c(C)oc2ccc(OC(=O)c3ccc(OC)cc3)cc12	99
CC1CCN(C(=O)c2ccc(-c3nn(C)c(=O)c4ccccc34)cc2)CC1	114
CN(C)c1nnnn1Cc1ccc(Cl)cc1Cl	89
C=CCc1cccc2cc(C(=O)NCCC3=CCCCC3)c(=O)oc12	99
Cc1cccc(N2CCNCC2)c1	98
Cc1cccc(OCC(O)CN2C(C)CCCC2C)c1 (stereo not drawn)	119
O=C(Cn1nnc(-c2ccccc2F)n1)NCc1ccc2c(c1)OCO2	97
COc1cc(OC)c(NC2c3ncccc3C(=O)N2Cc2cccs2)cc1Cl (stereo not drawn)	100
Nc1c(C(=O)c2ccc(Cl)cc2)oc2nc(-c3ccco3)cc(-c3cccs3)c12	102
Cc1ccc(/C=C2\N=C(c3ccccc3)OC2=O)o1	99
COCCN1C(=O)/C(=C2/C(=O)N(Cc3ccc(C)cc3)c3ccccc32)SC1=S	98
O=C(NC(SC1=NCCS1)C(=O)c1ccccc1)c1ccccc1 (stereo not drawn)	97
COc1ccc(C(=O)NCCOc2cc(C)cc(C)c2)cc1OC	99
CC(C)=CCNc1ncnc2nc[nH]c12	101
CSC(=Nc1cc(C(F)(F)F)cc(C(F)(F)F)c1)N1CCCC1	85
COc1ccc(C2Sc3ccccc3N(CCN(C)C)C(=O)C2OC(C)=O)cc1 (stereo not drawn)	94
Cc1cc2c(CCl)cc(=O)oc2cc1C(C)C	99
O=S(=O)(Nc1ccccc1Cl)c1ccc2nc(-c3ccccc3)[nH]c2c1	104
Cc1cccc(NS(=O)(=O)N(C)C)c1	102
CNC(=O)c1ccc2nc(N)sc2c1	100
CC(C)c1ccc(NC(=O)COC(=O)/C=C/c2ccco2)cc1	110
Cc1ccn(C(=S)Nc2ccccc2)n1	100
Cc1ccc(C(=O)Cn2c3c(sc2=N)CCCC3)cc1	100
COc1ccc(C(c2c(C)[nH]c3ccccc23)N2CCCC2)cc1 (stereo not drawn)	102
N/C(=N\C1=NC(C(F)(F)F)(C(F)(F)F)N=C(c2cccnc2)O1)Nc1ccccc1	108
CNC(=S)c1sc2ccccc2c1C	96
O=c1c2ccccc2nc(SCc2cccc(F)c2)n1CC1CCCO1 (stereo not drawn)	100
Cc1ccc(-n2[nH]c(C)c(C=Nc3ccc(C)cn3)c2=O)cc1	104
COc1ccc(OCCC(=O)OCc2ccccc2)cc1	99
CN(C1=NC(=O)/C(=C\c2ccccc2Cl)S1)c1ccc(O)cc1	100
O=C(O)CCN1C(=O)/C(=C/c2ccccn2)SC1=S	100
Cc1ccc2nc3ccc(N4CC(C)CC(C)C4)nn3c(=O)c2c1 (stereo not drawn)	98
c1ccc(-n2ncc3c(N4CCCCCC4)ncnc32)cc1	101
Additional structures.
SMILES	Vaccinia pol inh
N#CCCN(Cn1c2ccccc2c2ccccc21)c1ccccc1	100
COc1ccccc1NC(=O)Cc1cn2ccsc2n1	103
O=C(Nc1nc2ccc(Cl)cc2s1)c1cccs1	107
CCOC(=O)/C(C#N)=C(/N)c1cc2cc(Br)cc(Br)c2oc1=O	99
CS(=O)(=O)c1nc2ccccc2s1	94
Cc1cccc(NC(=S)N(CCc2ccncc2)C2CCCCC2)c1	80
CC(C)(C)n1ncc2c(=O)n(Cc3ccc(Cl)cc3)cnc21	95
O=C(NCc1cccs1)C(NS(=O)(=O)c1cccc2nsnc12)c1ccccc1 (stereo not drawn)	96
Cc1cc(Br)c(-n2cccc2)c(Br)c1Cl	101
CCc1c(C)nc2c(C#N)c[nH]n2c1=O	112
CC(N=C(NC#N)Nc1ccncc1)C(C)(C)C (stereo not drawn)	98
Cn1cc(C2NC(=O)c3c(sc4c3CCCC4)N2)c2ccccc21 (stereo not drawn)	100
Cc1ccc(C(=O)Nc2nnc(-c3ccccc3)o2)cc1C	95
O=C(O)Cc1nc2ccccc2[nH]1	89
Cc1ccc2nc(NC(=O)CNc3ccc(F)cc3)sc2c1	99
CCC(C(=O)OC)n1cnc2c(nnn2Cc2ccccc2F)c1=O (stereo not drawn)	97
COc1ccc(-c2noc(N3CCC(C(=O)NCCN4CCc5ccccc5C4)CC3)n2)cc1	95
CC(Oc1ccc2c(-c3ccccc3)cc(=O)oc2c1)C(=O)O (stereo not drawn)	95
CC(=O)NC(=O)c1cc2c(ccc3ccccc32)oc1=Nc1ccc(C)cc1	100
O=C(O)c1cccc(-c2ccc(/C=N\n3cnnc3)o2)c1	101
Cc1csc2nc(CSc3nnnn3-c3ccccc3)cn12	100
Oc1ccc2oc3c(c2c1/C=N/N1CCCCC1)CCCC3	100
Cc1cccc(NC(=O)CSC2=NS(=O)(=O)c3ccccc32)c1C	101
CN(C)c1ccc(NC(=O)c2sc3ccccc3c2Cl)cc1	84
CC(C)NC(=O)c1ccc(-c2ccccc2)cc1	97
NC(=O)C1CCN(S(=O)(=O)c2ccccc2)CC1	100
CCOC(=O)c1c(NC(C)=O)sc2c1CCN(C(C)C)C2	95
Fc1ccc(C(Nc2ccccn2)c2c[nH]c3ccccc23)cc1 (stereo not drawn)	101
CCOC(=O)c1ccc(N2N=C(C(F)(F)F)/C(=C/c3ccc(OCC)c(OCC)c3)C2=O)cc1	100
CN(C)c1ccc(C2OC(COc3ccccc3)CN(C(=O)c3ccccc3)O2)cc1 (stereo not drawn)	100

Looked up by structure from the list above:
SMILES	Vaccinia pol inh
CCOC(=O)c1c(NC(C)=O)sc2c1CCN(C(C)C)C2	95
CC(=O)NC(=O)c1cc2c(ccc3ccccc32)oc1=Nc1ccc(C)cc1	100

Later entries
SMILES	Vaccinia pol inh
COc1ccc2nc(SCC(=O)Nc3cc(F)ccc3F)[nH]c2c1	100
CC(=O)Nc1ccccc1-c1nc2ccc(C(=O)N3CCC(Cc4ccccc4)CC3)cc2[nH]c1=O	104
COc1cc2c(C(=O)O)c(C)oc2cc1Br	92
OCc1c(Cl)nc2sccn12	103
Cc1nc2sc(C(c3ccc(F)cc3)N3CCC(O)CC3)c(O)n2n1 (stereo not drawn)	101
O=C(COc1ccc(Br)cc1)N(CCO)CCO	104
Brc1cc2c(cc1/C=N/c1c(-c3ccco3)nc3ccccn13)OCO2	100
CCOC(=O)c1ccc(NC(=O)c2c(NCc3ccc(C)o3)sc3c2CCCC3)cc1	102
COc1ccc(C2C=C(c3ccc(F)cc3)NC(=S)N2)cc1OC (stereo not drawn)	101
CCN1CCN(C(c2cccs2)C(C)NC(=O)c2ccncc2)CC1 (stereo not drawn)	100
Cc1nn(-c2ccccc2)c(C)c1CS(=O)(=O)c1ccccc1	107
O=C(Cc1ccccc1)Nc1ccc(O)c(-c2nc3ccccc3s2)c1	99
CC1CCC/C(=C\c2ccc3c(c2)OCO3)C1=O (stereo not drawn)	101
COc1cc2c(cc1OC)C(C)N(S(=O)(=O)c1ccc(C)cc1)CC2 (stereo not drawn)	100
Cc1c(Cl)cccc1NC(=O)c1cc2ccccc2oc1=O	100

Shown in CSV form: entries from further up.
mol,Vaccinia pol inh
CCOC(=O)N1CCC(N2CC34C=CC(O3)C(C(=O)Nc3ccc(OCC)cc3)C4C2=O)CC1 (stereo not drawn),91
COC(=O)Cn1c(=O)c2cccn2c2ccccc21,90
CC(C)(Oc1ccc(Cl)cc1)C(=O)O,102
Cc1ccc(S(=O)(=O)CC(C)N2CCOCC2)c(S(=O)(=O)CC(C)N2CCOCC2)c1 (stereo not drawn),100
COc1ccc(OC2C(=O)N(c3cccc(C(F)(F)F)c3)C2c2ccc(OC)c(OC)c2)cc1 (stereo not drawn),98
CCOC(=O)c1cnc2c(ccc3ccccc32)c1NCCOC(=O)C(C)(C)C,100
COC(=O)C1=C(C)N(C)C(=O)/C1=C\c1cc(C)n(-c2ccc(C)cc2)c1C,100
c1cnc(N2CCN(Cc3c[nH]c4ccccc34)CC2)nc1,101
COc1ccc(NC(=O)C2CC(=O)N(CCc3ccc(Cl)cc3)C2)cc1 (stereo not drawn),90
CN(C)CC(C)(C)NS(=O)(=O)c1ccccc1,102
Cc1cc2c(cc3c(SCC(=O)NCc4ccco4)nncn32)o1,94
CC1CCCC(C)N1C(=O)c1cc2c(s1)-c1ccccc1OC2 (stereo not drawn),96
Nc1nc(S(=O)(=O)c2ccccc2)c(Cl)s1,100
CC(OC(=O)c1ccncc1)C(=O)Nc1cc(C(F)(F)F)ccc1Cl (stereo not drawn),104
CCNC(=S)Nc1ccc(F)cc1,100
C/C(=N\n1cnnc1)c1ccc(-n2cnnn2)cc1,100
NNC(=O)Cn1nnc(N2CCCC2)n1,99
CC1CN(C(=O)c2ccc(C(=O)c3ccccc3)cc2)CC(C)O1 (stereo not drawn),110

(more compounds)
SMILES	Vaccinia pol inh
CC(C)C(=O)NCCc1nc2ccccc2[nH]1	101
CCNc1nc(OC)nc(Oc2ccc(/C=N/O)cc2)n1	99
O=C(Nc1ccc(Cl)cc1)C1=Cc2ccccc2OC1	65*
COc1ccc(-c2nc(NCC3CCCO3)c3ccccc3n2)cc1 (stereo not drawn)	66*
c1ccc2[nH]c(CSc3nc4ccccc4o3)nc2c1	98
CCOC(=O)CSc1nncc(=O)[nH]1	107
CCN(CC)C(=S)SC1=CCS(=O)(=O)C1	100
COc1cc(C2C(C#N)=C(N)OC3=C2C(=O)CC(C)(C)C3)ccc1OCC(=O)Nc1ccccc1C (stereo not drawn)	99
Clc1ccc(C2=CC(c3ccco3)n3ncnc3N2)cc1 (stereo not drawn)	102
CCC(=O)Nc1ccc(C(=O)c2ccccc2)cc1	98
Cc1ccc(N(CC(N)=O)C2SC(=O)N(c3ccccc3)C2=O)cc1 (stereo not drawn)	100
CC(C)Oc1ccc(C2CC(=O)NNC2=O)cc1 (stereo not drawn)	100
CSC(=S)n1c2ccccc2c2ccccc21	103
CCOC(=O)/C(C#N)=C1/C=CN(C)C=N1	100
COc1cc(OC)cc(C(=O)N(C)C2(c3ccccc3Cl)CCCCC2=O)c1 (stereo not drawn)	104
Cc1noc(C)c1S(=O)(=O)NCC1COc2ccccc2O1 (stereo not drawn)	96
c1ccc2cc(-c3csnn3)ccc2c1	101
O=C(CCn1c(=O)oc2ccccc21)Sc1ccc(C(F)(F)F)cc1	100
O=C(/C=C/c1cccc(Oc2ccccc2)c1)N1CCOCC1	100
Cn1cnc(S(=O)(=O)NCC2CCN(C(=O)OC(C)(C)C)CC2)c1	106
O=C(CCCn1sc2ccccc2c1=O)NC1CCCC1	93
Cc1cc2c(cn1)C(=Nc1ccccc1C)c1ccccc1-2	98
CCC(Oc1ccccc1)C(=O)NCc1ccccn1 (stereo not drawn)	100
CCOc1ccc(C(=O)N2CCc3cc(OC)c(OC)cc3C2)cc1	100
O=C(c1ccc(CSc2cccc3cccnc23)cc1)N1CCOCC1	100
Cc1cccc(CN2CCN(C(=O)CC(C)C)CC2)c1	59*
COc1ccccc1Nc1ccc(N)cc1	102
C[n+]1c(CF)sc2ccccc21	100
Cc1ccccc1NC(=O)Nc1sc2nc3n(c(=O)c2c1C)CCC(C)CC3 (stereo not drawn)	103
Cc1ccc2nc(SCC(=O)c3ccc(Cl)s3)[nH]c2c1	98
Cc1ccc(NC(=O)CSc2nc3ccccc3c(=O)n2CC2COc3ccccc3O2)cc1 (stereo not drawn)	102
Nc1c(C(=O)Nc2ccccc2)sc2nc3c(cc12)CCCCC3	100
NS(=O)(=O)c1ccc(NC(=S)N2CCC(Cc3ccccc3)CC2)cc1	100
O=C(COC(=O)C12CC3CC(CC(C3)C1)C2)Nc1ccc(Cl)cc1	107
CCOC(=O)N1CCC(NC(=O)c2ccc(Cl)cc2)CC1	109
O=C(O)c1c(Nc2nnc(-c3ccncc3)s2)sc2c1CCCC2	101
CC(C)N1CCN(C(=O)c2ccc(F)cc2)CC1	95
C1=C(c2cccs2)CC(c2cccs2)=NN=C1c1cccs1	101
CC1(C)CCC2=C(O1)c1ccccc1C(=O)C2=O	98
CC(C)CCNC(=O)C1CCN(Cc2cccc(OCc3ccccc3)c2)CC1	98
FC(F)(F)c1ccc(NC(=S)N2CCn3cccc3C2c2cccs2)cc1 (stereo not drawn)	100
C(=Nc1ccc2nc(-c3ccccc3)[nH]c2c1)c1ccccc1	100
Cc1c(C)c(C)c(CSc2ccccn2)c(C)c1C	107

Screening data as filed in PubChem BioAssay.

An excerpt (hit frequency here may not be typical).
